Source: PubChem BioAssay (ICCB-Longwood Screening Facility, Harvard Medical School)
AID504770: E. coli YBA685 growth inhibition, screen for V. cholerae RctB inhibitors; E. coli YBA685 rctB-dependent plasmid, OD600 growth, 3 h; active compounds read low; z-score (concentration not given with the values); 130,000 compounds, 0.27% hits;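 active = z-score under -2 on both plates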;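 also: wells of about 30 µL received 100 nL stock; score is relative to mean and SD of the test wells; the first replicate is given; strong numbers were not always called active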
Ba CapD inh: inhibitors of Bacillus anthracis CapD enzyme. 140,000 compounds, 0.23% hits. z-score (test concentration not listed). purified CapD enzyme, fluorescence intensity read-out; active compounds read low; some hits fall short of the stated cut;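 active = z-score under -4 in either of two replicates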;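 also: stock transfer was 100 nL into about 40 µL; score is relative to mean and spread of the plate; one replicate is shown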
Active calls of the source: *; nt = no result given; & = joins results of further samples. An excerpt; rates above refer to the full screens.

entry	smiles	AID504770	Ba CapD inh
1	Cn1c(C(=O)O)cc2cc(Cl)ccc21	-0.15	nt
2	CCN1CCN(C(=O)C(NS(=O)(=O)c2ccc3nc(C)sc3c2)C(C)C)CC1 (centres undefined)	-0.3	-0.37
3	Cc1ccc(-c2nnc3c4cnn(Cc5ccccc5)c4ncn23)cc1	-0.6	0.52
4	Cc1c(C(=O)NN)sc2nc3n(c(=N)c12)CCC3	-0.2	nt
5	N=C1C(c2ccccc2)=C(O)CN1CC1CCCO1 (centres undefined)	0.45	0.51
6	CCC(=O)N1c2ccc(C)cc2-c2c(ssc2=S)C1(C)C	nt	-0.85
7	Cn1cccc1CNCCN1CCOCC1	-0.4	nt
8	CN(CCO)C(=O)c1ccc(-c2nn(C)c(=O)c3ccccc23)cc1	2.4	-0.13
9	COC(=O)c1cccc(NC(N)=O)c1	-1.1	nt
10	CC1(C)Cc2c(C#N)c(SCC(=O)c3ccc(Br)cc3)nc(N3CCOCC3)c2CO1	nt	-0.32
11	Cc1ccc(-c2csc(NC(=O)c3coc4ccccc4c3=O)n2)o1	-1.5	0.11
12	CCCSc1nc2c(c(=O)n1-c1ccccc1)SCC2	0.25	nt
13	Cc1ccn2cc(-c3cccs3)cc2c1	0.8	-0.42
14	Cn1nccc1NS(=O)(=O)c1ccc(NC(=O)C(F)(F)F)cc1	0.85	0.68
15	O=C(NCc1ccsc1)c1ccc(N2CCOCC2)nc1	0.4	-0.16

Whole records from above:
`Cc1c(C(=O)NN)sc2nc3n(c(=N)c12)CCC3` across the screens: AID504770: -0.2; Ba CapD inh: nt
`Cc1ccn2cc(-c3cccs3)cc2c1` across the screens: AID504770: 0.8; Ba CapD inh: -0.42

Further entries:
entry	smiles	AID504770	Ba CapD inh
16	CCCc1cc(-n2cnc3ccccc32)n2c(nc3ccccc32)c1C#N	-1.8	-0.45
17	S=C1SCN(CCN2CCOCC2)CN1Cc1ccccc1	-3*	2.3
18	CC1(C)C(=O)N(CC2(C)CC2(Cl)Cl)C(=O)N1C(=O)c1ccccc1 (centres undefined)	nt	-0.28
19	O=c1c2ccccc2ncn1Cc1ccccc1	0.35	nt
20	N#CC(Nc1cc(Cl)cc(Cl)c1)c1ccccc1 (centres undefined)	-0.1	-0.89
21	C=CCN1C2=NCCN2c2ccccc21	nt	-0.26
22	CC1CN(C(=O)COC(=O)c2ccc3c(c2)C(=O)N(c2ccc(Cl)cc2)C3=O)CC(C)O1 (centres undefined)	0.1	nt
23	CCNC(=S)N(Cc1ccccc1)Cc1nc2ccccc2c(=O)[nH]1	-0.15	nt
24	O=C(CCN1C(=O)/C(=C/c2ccccc2)SC1=S)Nc1ccc(S(=O)(=O)Nc2nccs2)cc1	nt	-0.62
25	CCOC(=O)c1oc2ccccc2c1CN1C(=O)c2ccccc2C1=O	1.1	nt
26	CSc1nc(N)nc(SCC(=O)NC23CC4CC(CC(C4)C2)C3)c1C#N	nt	-0.065
27	O=C(O)CCN=Cc1c(O)c2ccccc2oc1=O	-0.3	96
28	O=C(COc1ncnc2ccccc12)NCC1CCCCC1	0.65	0.03
29	Cc1ccc(CCOC(=O)NC(Cc2ccc(OC(C)(C)C)cc2)C(=O)OC(C)(C)C)cc1 (centres undefined)	nt	-0.55
30	N#CCCn1nc(-c2ccccc2)cc1C(=O)N/N=C/c1ccncc1	1.5	nt
31	Cc1cccc(Oc2c(C(F)(F)F)oc3cc(OCC(=O)OC(C)C)ccc3c2=O)c1	nt	-0.73
32	Cc1cccc(OC(=O)CSc2nnc(C)c3ccccc23)c1	nt	-0.12
33	CCCCOc1ccc(C2=N/C(=C\c3ccc(OC(C)=O)c(OC)c3)C(=O)O2)cc1	nt	11
34	CCOC(=O)C1=C(CSc2nc(-c3ccncc3)ccc2C#N)OC(N)=C(C#N)C1c1ccc(OC)cc1 (centres undefined)	nt	0.75
35	S=c1[nH]c2ccccc2n1Cc1ccccc1Cl	0.95	nt
36	CC(=O)Nc1ccc2c(CSc3nnc4nc(C)cc(C)n34)cc(=O)oc2c1	-0.45	nt
37	O=C(NCc1c(F)cccc1Cl)c1ccc(Cl)cc1	nt	-0.95
38	CCc1ccc(-c2nc(SCC(=O)NC3(C#N)CCCCC3)n[nH]2)cc1	-0.1	nt
39	COc1ccc(NC(=O)C(c2ccccc2)N(C)C(=O)Cc2c[nH]c3ccccc23)cc1 (centres undefined)	-0.75	-0.54
40	CCOC(=O)c1sc2nc(C)nc(Nc3cc(Cl)ccc3OC)c2c1C	nt	-0.005
41	CC(=O)Nc1nonc1-n1c(C)ccc1C	-0.7	-0.37
42	CCN(CC(=O)NCc1ccc(F)cc1)C(=O)c1cn(CC)c2nc(C)ccc2c1=O	0.7	nt
43	CCc1n[nH]c2c1/C(=N\O)CC(C)(C)C2	-0.5	-0.12
44	CC1=CS(=O)(=O)CC1Sc1ncn[nH]1 (centres undefined)	0.3	nt
45	CC(OC(=O)NC1CCCCC1)c1cc2ccccc2o1 (centres undefined)	-0.25	nt
46	COC(=O)C1Cc2[nH]cnc2C(c2ccc(OC)c(OC)c2OC)N1 (centres undefined)	0.75	nt
47	CCc1ccc(-n2c(C)ccc2C)cc1	0.15	0.035
48	Cc1ccc(C)c(OCCCC(=O)Nc2ccc(N3CCOCC3)cc2)c1	0.65	nt
49	Cn1cc(P(=S)(N2CCOCC2)N2CCOCC2)cc1P(=S)(N1CCOCC1)N1CCOCC1	1.7	nt
50	COc1ccc(NC(=S)N(CCCN2CCOCC2)Cc2ccccn2)cc1	-0.7	0.52
51	Cc1ccc(NC(=O)CN(C)C(=O)CSc2n[nH]c(=O)n2Cc2ccccc2)cc1	-0.15	nt
52	CCOc1ccc(-n2c(SCC(=O)Nc3nnc(SCC)s3)nc3c(c2=O)SCC3)cc1	nt	0.64
53	COc1ccc(C2CC(=O)C3=C(C2)Nc2ccccc2NC3c2ccc(Br)cc2)cc1OC (centres undefined)	nt	-1.1
54	COc1ccc(CNC(=S)NCCO)cc1	-0.7	0.21
55	CC(NC(=O)c1cccc2c1C(=O)N(Cc1cccnc1)C2)c1cccs1 (centres undefined)	1.1	-1.4
56	O=C1S/C(=C\c2ccccc2)C(=O)N1c1ccc(O)cc1	0.7	-0.14
57	CCCCNC(=O)C(CC)Sc1nc2cc(C(=O)NCCOC)ccc2c(=O)n1Cc1ccc2c(c1)OCO2 (centres undefined)	nt	-2.1
58	CCOc1cc2oc(=O)c3c(c2cc1Cl)CCC3	0.15	1.9
59	CCC(=O)NCCc1nc2ccccc2n1Cc1ccccc1	-0.6	0.18
60	CCn1c(Cc2ccccc2)nnc1SCC(=O)c1ccc2c(c1)OCO2	-0.3	nt
61	Cc1ccc(Cl)cc1NC(=O)/C(=C/c1ccc2c(c1)OCO2)NC(=O)c1ccccc1Br	nt	1.7
62	O=C1NC(c2ccccn2)Nc2sc3c(c21)CCCC3 (centres undefined)	-0.25	-0.72
63	CC(=O)N(/C=C1/N=C(c2ccccc2)OC1=O)OCc1ccc(Cl)cc1	nt	0.92
64	O=C1C(=O)N(Cc2cccc(Cl)c2)C(=O)N1CCOc1ccccc1	nt	-0.65
65	O=C(O)c1cc([N+](=O)[O-])ccc1NCc1ccco1	nt	-3.1
66	N#Cc1c(N2C(=O)CCC2=O)sc2c1CCCC2	0.25	0.69
67	N#CCCn1cc(CO)c(-c2ccc(F)cc2)n1	1.9	-1.1
68	O=C(/C=C/c1ccccc1)Nc1ccc(O)cc1	-0.6	nt
69	CC12CCC(CN(CC(O)Cn3c4ccc(Cl)cc4c4cc(Cl)ccc43)C1)C2(C)C (centres undefined)	nt	0.24
70	CCOC(=O)C1CCN(C(=O)c2n[nH]c(=O)c3ccccc23)CC1	nt	0.13
71	CCOC(=O)c1c(NC(=O)COc2ccc(Cl)cc2Cl)sc(C(=O)Nc2ccccc2F)c1C	nt	-0.21
72	COc1ccc(N2C(=O)CC(Sc3nc4c(cc3C#N)CCC4)C2=O)cc1 (centres undefined)	nt	0.78
73	COC(=O)c1cc2oc(C)cc2n1CC(=O)c1ccccc1	0.35	0.18
74	O=C(NC1CCN(Cc2c[nH]c3ccccc23)CC1)C1CCCCC1	nt	0.48
75	N#CC1=C(N)OC2=C(C(=O)CCC2)C1CCc1ccccc1 (centres undefined)	-0.25	0.42

(listing goes on)
entry	smiles	AID504770	Ba CapD inh
76	O=C(CN1C(=O)C2C3C=CC(C3)C2C1=O)N1CCSC1=NCCc1ccccc1 (centres undefined)	-0.7	nt
77	COc1ccc(C2=NS(=O)(=O)N(C)C(C(=O)N3C(C)CCCC3C)=C2)cc1 (centres undefined)	-0.7	6.3
78	CCc1cc(C(N)=S)ccn1	0.5	-0.065&-0.31
79	CCCc1cc(=O)oc2cc(C)cc(OC(=O)c3ccco3)c12	0.6	0.48
80	CCN(CC(=O)NC1CCCCCC1)S(=O)(=O)c1ccc(Cl)cc1	0.55	-0.67
81	CCc1cc(C(=O)Cc2nc(C)cs2)c(O)cc1O	-1	38
82	S=C(NCc1ccccc1)Nc1cccc2ccccc12	-0.55	2.8
83	O=C(NCc1ccc(Cl)cc1)NC1CCCCC1	2	nt
84	O=C(O)c1cc(-c2cccs2)nn1-c1ccccc1	0.35	-0.01
85	COc1ccc2oc(C(=O)OCC(=O)c3ccc4c(c3)OCO4)c(C)c2c1	0.75	nt
86	Cn1nnnc1SCc1cccc(S(=O)(=O)N2CCOCC2)c1	1.7	nt
87	C=CCN(CC=C)Cc1ccc(C(=O)OC)o1	0.35	0.82
88	O=S(=O)(c1ccccc1)C1CON(Cc2ccccc2)C1c1ccccc1 (centres undefined)	nt	0.43
89	CCOC(=O)CC(=O)NNC(=O)c1ccc2n[nH]nc2c1	nt	-1
90	Cc1cc(C)c(C(=O)N2Cc3ccccc3NC2=S)c(C)c1	-0.4	-0.12
91	O=C(NC1CC1)c1cccc(C(F)(F)F)c1	-0.8	1.5
92	Cc1cc(Nc2ncc(Cl)cc2Cl)n(-c2ccccn2)n1	-1.1	-1.6
93	CCOc1ccc(N2C(=O)C(N3C(=O)c4ccc([N+](=O)[O-])cc4C3=O)C2c2cc(Br)ccc2OC)cc1 (centres undefined)	nt	-0.32
94	CC(C)CCNC(=O)Cc1ccc(-n2c(=S)[nH]c3ccccc3c2=O)cc1	0.45	-0.015
95	O=C(NCCCn1ccnc1)C1(c2cccs2)CCOCC1	1.3	nt
96	C=CCOC(=O)Oc1ccc2c(=O)c(Oc3ccccc3Cl)coc2c1	0.65	-0.06
97	CCN(C(=O)C12CCC(C)(C(=O)C1)C2(C)C)c1ccccc1 (centres undefined)	-0.4	0.26
98	O=C(Nc1cccc(Cl)c1Cl)N1CCCN(Cc2ccc(F)cc2)CC1	-1.1	1.1
99	CCc1ccccc1-n1c(SCC(=O)Nc2cc(Cl)c(OC)cc2OC)nc2n[nH]c(C)c2c1=N	nt	-1.1
100	COc1cccc(-c2cc(C(=O)Nc3cnn(C45CC6CC(CC(C6)C4)C5)c3)on2)c1	0.45	-0.47
101	O=c1ccc2ccc(O)cc2o1	-1.6	64
102	Cc1cc(C(=O)NNC(=O)c2ccccc2S(C)(=O)=O)nn1C	nt	0.21
103	COc1ccc2c(c1)NC(c1cccnc1)=NC(c1ccccc1)=N2	0.15	-0.62
104	CC1CC(CC(=O)NNc2nc(-c3ccccc3)cs2)C(=O)O1 (centres undefined)	-0.75	-0.34
105	N#CCOC(=O)c1ccc2c(c1)S(=O)(=O)c1ccccc1C2=O	-0.3	nt

From compound 103 up to 105, copied from above:
entry	smiles	AID504770	Ba CapD inh
103	COc1ccc2c(c1)NC(c1cccnc1)=NC(c1ccccc1)=N2	0.15	-0.62
104	CC1CC(CC(=O)NNc2nc(-c3ccccc3)cs2)C(=O)O1 (centres undefined)	-0.75	-0.34
105	N#CCOC(=O)c1ccc2c(c1)S(=O)(=O)c1ccccc1C2=O	-0.3	nt

(next part)
entry	smiles	AID504770	Ba CapD inh
106	CSc1nnc(-c2ccncc2)n1C	-0.5	nt
107	COc1ccc(NC(=O)Cn2c(-c3ccccc3Cl)nc3sc(C)c(C)c3c2=O)cc1Cl	nt	-0.04
108	Cc1ccccc1N1C(=O)/C(=C/c2ccc(Br)cc2)C=C1c1ccccc1	nt	0.22
109	COc1cc(NC(=O)CN2C3CCC2CC(O)(c2cccnc2)C3)cc(OC)c1 (centres undefined)	1.2	nt
110	CCOC(=O)CN1CCCCCC1=O	-0.55	nt
111	COc1cccc(C2CC(=O)N(c3ccccc3)C3=C2C(=O)CCC3)c1OC (centres undefined)	-0.45	nt
112	CCOC(=O)c1sc2ncnc(N3CCN(Cc4ccc5c(c4)OCO5)CC3)c2c1C	nt	1.5
113	O=C1OCCC1OC(=O)C(c1ccccc1)c1ccccc1 (centres undefined)	0.1	nt
114	Cc1cc2nc(Cc3ccc(OC(F)F)cc3)c(=O)n(C)c2cc1C	nt	15
115	Cc1cccc(NC(=O)N2CCOc3ccc(Cl)cc32)c1	1.9	-0.055
116	CCOC(=O)c1cc(NC(=O)CSc2ncnc3sc(C)c(C)c23)cc(C(=O)OCC)c1	nt	0.095
117	CC(C)OC(=O)c1nnn(-c2nonc2N)c1CN1CCN(c2ccccn2)CC1	nt	-0.37
118	CCC(SC1=NC(=O)C(c2ccccc2)C(=O)N1)C(=O)Nc1sc2c(c1C#N)CCCC2 (centres undefined)	1.7	-0.69
119	CCOCC(O)CN (centres undefined)	-0.4	nt
120	CCOc1ccc(N2C(=O)CC(N(Cc3ccc(Cl)cc3)C(=O)c3ccc(Cl)cc3)C2=O)cc1 (centres undefined)	-0.35	0.14
121	O=C(/C=C/c1ccco1)NC1CCCC1	-0.35	nt
122	CCC(=O)NC1=NC(=O)/C(=C/c2ccc(-c3ccccc3F)o2)S1	nt	0.01
123	CNc1nc(OCC(F)(F)C(F)F)nc(N(c2ccccc2)c2ccccc2)n1	1.2	nt
124	CN(C)C(=O)CN1c2cccc3cccc(c23)S1(=O)=O	0.05	nt
125	N#Cc1ccccc1Sc1ccccc1C(=O)N(CC1CCCO1)C1CCS(=O)(=O)C1 (centres undefined)	-0.8	nt
